Mtb betalactam – beta-lactam sensitization of Mtb H37Rv. M. tuberculosis H37Rv growth with meropenem, percent inhibition; hits of this screen are not shown here. inhibition, % at 25 µM. 0.27% of 330,000 active. AID 434955;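 active = about 74% or more and at least 40 points above the plate without the antibiotic, then above 30% in a dose series; inconclusive = first-round hits that could not be retested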;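 also: growth measured after seven days incubation then overnight dye step; 0% = bacteria only wells and 100% = bacteria with antibiotic; twin plates without the antibiotic show which effects depend on it; some results filed as inactive read as strong as hits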
RecA intein inh – blocks M. tuberculosis RecA intein splicing. inhibition, %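 (about 9 µM by stock and volumes)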. cell-free RecA intein splicing, fluorescence. P9WHJ3. AID 2221. 0.75% of 290,000 active; in the data active = inhibition above about 30%; inconclusive = no clear call, values can overlap the other calls;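 also: 0% = vehicle wells and 100% = reference inhibitor control wells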
Target sequence (P9WHJ3 whole entry, looked up): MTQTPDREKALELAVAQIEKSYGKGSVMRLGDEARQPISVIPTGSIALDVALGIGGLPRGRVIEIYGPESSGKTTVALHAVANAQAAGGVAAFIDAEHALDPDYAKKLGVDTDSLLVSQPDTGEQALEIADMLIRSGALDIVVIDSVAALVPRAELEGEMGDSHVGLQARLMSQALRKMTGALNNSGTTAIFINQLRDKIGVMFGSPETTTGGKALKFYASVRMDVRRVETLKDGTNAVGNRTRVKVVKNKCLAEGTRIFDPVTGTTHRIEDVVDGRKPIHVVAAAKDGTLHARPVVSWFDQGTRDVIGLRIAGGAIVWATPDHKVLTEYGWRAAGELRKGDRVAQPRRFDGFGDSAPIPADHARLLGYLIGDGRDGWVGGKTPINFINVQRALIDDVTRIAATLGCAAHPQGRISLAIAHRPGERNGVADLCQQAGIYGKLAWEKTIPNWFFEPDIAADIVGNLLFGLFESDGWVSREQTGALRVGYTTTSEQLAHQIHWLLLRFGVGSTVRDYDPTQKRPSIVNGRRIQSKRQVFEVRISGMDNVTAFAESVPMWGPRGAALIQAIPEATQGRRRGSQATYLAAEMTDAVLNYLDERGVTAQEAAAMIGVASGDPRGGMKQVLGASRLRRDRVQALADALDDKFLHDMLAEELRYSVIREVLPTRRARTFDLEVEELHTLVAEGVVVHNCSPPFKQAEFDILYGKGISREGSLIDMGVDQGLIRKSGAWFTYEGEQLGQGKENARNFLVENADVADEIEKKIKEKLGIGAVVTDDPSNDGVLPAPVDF
Mtb growth – M. tuberculosis H37Rv growth inhibitors, H37Rv strain (AID 1626). one-dose inhibition, % at 10 µM; IC50 in µM for titrated hits. M. tuberculosis H37Rv growth inhibition; higher % means a stronger effect. 0.95% of 220,000 active;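 active = confirmed in a dose series; inconclusive = inhibition above 80% but not taken into the dose series; inactive = below 80% or under 30% at every dose of the series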;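 also: bacteria incubated seven days before Alamar blue readout; 0% = bacteria only wells and 100% = bacteria with antibiotic wells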
Arbovirus inh – antivirals against arbovirus infection; AID 1251; arbovirus infection cell-based antiviral screen; inhibition, % at 10 µM; 0.37% of 200,000 active;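 active = inhibition from about 30%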;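 also: bluetongue infection of BSR cells; cell survival read as ATP light after 72 h; 0% = infected wells without compound and 100% = uninfected wells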
YopH PTP inh – blocks Yersinia enterocolitica YopH tyrosine phosphatase; fluorescence Ex485/Em525; inhibition, %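 (about 10 µM by stock and volumes)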; 0.16% of 140,000 active; AID 898;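 active = inhibition of 50% or more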;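 also: controls were vehicle for no effect and minimum signal wells for full effect; inactives centre near -20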
Arbovirus inh repeat – recorded beside Arbovirus inh, whose call it bears; inhibition, %; measured here: 10K subset replicate screen; many hits read low in the repeat;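 first of two repeat runs on a subset; 0% = infected and 100% = uninfected wells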
Starred values were filed as active, the others as inactive; ? = inconclusive; / = no result given. Only part of the results is shown (hit frequency here may not be typical).

SMILES | Mtb betalactam | RecA intein inh | Mtb growth | Arbovirus inh | YopH PTP inh | others
Cc1cc(C(=O)N/N=C/c2cc(N=Nc3ccccc3)ccc2O)n[nH]1 | 3.8 | 12.7 | -1.0% | -24.7 | 10.1
O=[N+]([O-])c1ccccc1/C=N\N1CCN(c2ccccc2)CC1 | -2.2 | -2.3 | -10.9% | -24.6 | /
Fc1ccccc1NC(=S)NCc1ccc(Cl)cc1 | 45.5 | 1.6 | / | / | /
C=CCn1c(C)cc(C2=NNC(=NCc3ccccc3)SC2)c1C | 97.6 | 7.2 | -9.8% | -3.0 | /
C/C=C/c1ccc(OCCCNCC(C)O)c(OC)c1 (stereo not drawn) | -12.7 | -0.2 | 4.0% | -5.4 | -7.3
COc1ccc(C(O)P(=O)(OCCC(C)C)c2ccc(N(C)C)cc2)cc1 (stereo not drawn) | 0.6 | 1.5 | / | / | /
C=CCn1c(=S)[nH]c2sc3c(c2c1=O)CCCC3 | -0.2 | 1.7 | / | / | /
Cc1ccccc1Cn1nnc(C(=O)Nc2cccc(C)c2C)c1N | 6.6 | 1.5 | / | -23.1 | -39.5
COc1ccc(S(=O)(=O)Nc2ccc(S(=O)(=O)Nc3nc(C)cc(C)n3)cc2)cc1OC | 13.4 | -0.6 | -9.5% | -4.8 | -29.9
O=C(CSc1nc2c(c(=O)n1-c1ccc(Br)cc1)SCC2)NCc1ccco1 | 7.9 | 0.0 | -2.7% | 8.7 | 1.2 | Arbovirus inh repeat=6.7
Cc1nc(-c2cccnc2)sc1C(=O)N/N=C/c1ccccc1Cl | 60.8 | 2.1 | 4.9% | / | /
COCc1n[nH]c(=S)n1-c1cccc2ccccc12 | -15.5 | / | -5.4% | 4.7 | -55.5
CC(=O)NCC(=O)N(Cc1ccco1)C1(C(=O)NC2CCCCC2)CCCCC1 | -2.3 | 0.1 | -3.4% | -1.6 | -5.1 | Arbovirus inh repeat=0.4
COc1cc2c(cc1OC)-c1cc(NC3CCCC3)nc(=O)n1CC2 | ? | -0.9 | -9.5% | 4.2 | -26.8
Cc1ccsc1C(=O)OCC(=O)NCc1ccco1 | -0.3 | 0.1 | -5.8% | -3.1 | /
COCc1cc(C)nc(SCC(=O)Nc2ccc3c(c2)OCO3)c1C#N | -0.8 | -2.9 | 3.0% | -0.3 | 5.9
COc1ccc(NC(=O)CC2SC(N)=NC2=O)c([N+](=O)[O-])c1 (stereo not drawn) | 0.9 | / | -0.6% | 5.9 | /
COc1ccc(CCNS(=O)(=O)c2cn(C)c(=O)n(C)c2=O)cc1OC | -3.5 | 0.0 | -2.0% | -3.7 | -43.1
CCCCC(=O)Nc1nnc(C)s1 | -10.1 | -2.2 | -3.0% | 0.5 | -33.0
CCCC[C@@H]1CNCCN1CCc1cccc(F)c1 | -0.9 | -0.1 | / | / | /

3 entries out of the list, arranged by formula weight, low to high.
SMILES | Mtb betalactam | RecA intein inh | Mtb growth | Arbovirus inh | YopH PTP inh | others
C=CCn1c(C)cc(C2=NNC(=NCc3ccccc3)SC2)c1C | 97.6 | 7.2 | -9.8% | -3.0 | /
COCc1cc(C)nc(SCC(=O)Nc2ccc3c(c2)OCO3)c1C#N | -0.8 | -2.9 | 3.0% | -0.3 | 5.9
COc1ccc(S(=O)(=O)Nc2ccc(S(=O)(=O)Nc3nc(C)cc(C)n3)cc2)cc1OC | 13.4 | -0.6 | -9.5% | -4.8 | -29.9

(next part)
SMILES | Mtb betalactam | RecA intein inh | Mtb growth | Arbovirus inh | YopH PTP inh | others
CCC(C(=O)Nc1ccc(OC)c(Cl)c1)c1ccccc1 (stereo not drawn) | -0.4 | 0.2 | -7.0% | 16.8 | -37.2
Cc1nn2c(-c3ccccn3)ccnc2c1Cl | 0.6 | -0.1 | 11.2% | 6.8 | /
COc1ccc(OCCC(=O)OCC(=O)NCc2ccccc2OC)cc1 | 5.7 | -1.1 | / | / | /
Cc1ccccc1Nc1nc(-c2sc(NC(=O)c3ccco3)nc2C)cs1 | 21.1 | 3.4 | -4.3% | 19.4 | 13.7
COc1ccc(CCNS(=O)(=O)c2cc3c(cc2C)NC(=O)CO3)cc1OC | 4.4 | -6.1 | / | / | /
O=C(COC(=O)CCCNC(=O)c1ccc(Cl)cc1)Nc1cc(Cl)ccc1Cl | 0.6 | 0.3 | -7.0% | 2.6 | -24.5
Cc1ccc(C(=O)O/N=C\c2ccc(N3CCCCC3)c([N+](=O)[O-])c2)cc1 | 95.9 | 0.5 | 7.4% | 11.5 | -15.9
CC(=O)c1ccc(NC(=O)COC(=O)c2c3c(nc4ccccc24)/C(=C\c2cccs2)CCC3)cc1 | 97.9 | -1.7 | 0.449µM* | -30.0 | -35.8
C/C=C(\C)C(=O)N1CC2(CC(c3cccc(NC(=O)COc4ccc(Cl)cc4)c3)=NO2)C[C@@H]1C(N)=O (stereo partly drawn) | 1.4 | 3.6 | 7.8% | / | /
Cc1cccc(-c2cc3nc(C)cc(NCCCN(C)C)n3n2)c1 | 8.6 | -1.7 | 0.0% | -11.8 | -15.5
CC(=O)/C=C(\C)Nc1ccccc1O | 98.1 | 2.9 | 0.992µM* | / | /
O=C(OCn1nnc2ccccc2c1=O)c1cc(-c2ccccc2Cl)nc2ccccc12 | 1.3 | -1.9 | -0.6% | -7.2 | -13.3
COc1ccc(/C=N/NC(=O)c2nonc2N)cc1OC | -0.2 | / | 1.2% | / | /
Clc1cc(Cl)c2nc(N3CCOCC3)sc2c1 | 19.6 | 0.9 | -3.1% | -6.8 | 7.9
CCc1ccc(-c2ccc(SCC(=O)Nc3nnc(C)s3)nn2)cc1 | 3.8 | 1.2 | 2.4% | -0.8 | /
COC(=O)c1cc(COC(=O)c2ccc(OC)c(S(=O)(=O)N3CCCC3)c2)oc1C | / | 6.6 | -0.1% | 5.4 | -34.0
N#Cc1cc(S(=O)(=O)c2ccc(F)cc2)c(N)[nH]c1=O | -4.0 | -2.1 | -1.8% | -0.9 | /
Cc1cnc(CNC(=O)c2ccc(OC3CCN(C(=O)C4CC4)CC3)cc2)cn1 | 2.8 | -1.5 | 9.1% | 5.7 | /
COc1cc(CN2CCCC(CO)(Cc3cccc(Cl)c3)C2)cc2c1OCO2 (stereo not drawn) | 8.1 | 0.3 | 8.5% | -10.7 | /
CCCOCC(O)COc1ccccc1C(=O)N1CCOCC1 (stereo not drawn) | -5.4 | -2.0 | -5.4% | 15.3 | -37.6
CCOc1ccc(NC(=O)CN(C)CC(=O)Nc2cccc(Cl)c2C)cc1OCC | -7.9 | -0.9 | 6.1% | -2.3 | 1.1
COc1ccc(-c2ccc(SCC(=O)N3CCOCC3)nn2)cc1OC | -5.8 | 0.1 | -0.3% | 10.6 | -18.0
Cc1nc(N2CCN(S(=O)(=O)c3ccc(F)cc3)CC2)c2c(C)c(C)sc2n1 | -2.2 | -1.6 | -3.9% | / | /
CC(=O)Nc1nnc(Cc2c[nH]c3ccccc23)s1 | -4.1 | -3.0 | -7.0% | -9.6 | /
COc1ccc(NC(=O)C(CC(=O)O)C(C)c2ccccc2)cc1 (stereo not drawn) | 1.4 | -2.1 | -0.2% | -2.7 | /
COc1ccc2cc(CO)c(Cl)nc2c1 | 4.7 | -1.2 | 1.4% | 5.8 | /
O=C(COc1cccc2ccccc12)Nc1ccc(Cl)cc1C(=O)O | 0.9 | 9.6 | / | / | /
CN1C(C(=O)NCC2CC2)CC2Cn3c(nc4cc5ccccc5cc43)C21 (stereo not drawn) | -1.8 | -1.2 | -9.3% | / | /
O=C(CC(c1ccccc1)c1cc(Cl)ccc1O)N1CCCC1 (stereo not drawn) | -13.8 | 4.5 | -0.2% | / | /
CN1C(=O)CC(N2CCN(c3ncccn3)CC2)C1=O (stereo not drawn) | 2.6 | -1.8 | 36.3% | 2.9 | -30.8 | Arbovirus inh repeat=0.7
COc1cc(OC)cc(-c2nc(N)n[nH]2)c1 | -0.8 | 4.1 | -7.3% | 9.6 | -5.6
CCC(OC(=O)c1cccs1)C(=O)NC1CCCCC1 (stereo not drawn) | -2.1 | -1.1 | -10.2% | 6.6 | -32.6
CC1CCN(CC(=O)N2CCc3ccccc32)CC1 | -2.9 | -1.9 | / | / | /
COc1ccccc1CN1CC(C(=O)N(C)Cc2[nH]c3ccccc3c2C)CCC1=O (stereo not drawn) | -6.8 | 0.4 | / | / | /
N#CCOc1ccccc1/C=C/c1nc2ccccc2c(=O)[nH]1 | 3.0 | -0.1 | / | / | /
COc1ccccc1-c1ccc(Nc2cccc(C(C)=O)c2)nn1 | 16.9 | 2.3 | 7.3% | 0.1 | -39.2
Cc1onc(-c2ccccc2Cl)c1C(=O)Nc1ccc(-n2nncc2-c2ccco2)cc1 | 19.3 | / | 68.0% | -6.6 | -58.2
NS(=O)(=O)c1ccc(NC(=S)NCc2ccco2)cc1 | -6.2 | 0.0 | -7.2% | -3.0 | /
Cc1ccc(Cc2ccc(C(=O)NNC(N)=S)o2)cc1 | 0.4 | -0.7 | -0.1% | -9.4 | /
CC(=O)c1ccc(OCc2ncc(C(F)(F)F)cc2Cl)cc1 | -2.2 | -0.7 | 13.1% | / | /

Structural class, those above with a furan ring, fused or not.
SMILES | Mtb betalactam | RecA intein inh | Mtb growth | Arbovirus inh | YopH PTP inh | others
O=C(CSc1nc2c(c(=O)n1-c1ccc(Br)cc1)SCC2)NCc1ccco1 | 7.9 | 0.0 | -2.7% | 8.7 | 1.2 | Arbovirus inh repeat=6.7
CC(=O)NCC(=O)N(Cc1ccco1)C1(C(=O)NC2CCCCC2)CCCCC1 | -2.3 | 0.1 | -3.4% | -1.6 | -5.1 | Arbovirus inh repeat=0.4
Cc1ccsc1C(=O)OCC(=O)NCc1ccco1 | -0.3 | 0.1 | -5.8% | -3.1 | /
Cc1ccccc1Nc1nc(-c2sc(NC(=O)c3ccco3)nc2C)cs1 | 21.1 | 3.4 | -4.3% | 19.4 | 13.7
COC(=O)c1cc(COC(=O)c2ccc(OC)c(S(=O)(=O)N3CCCC3)c2)oc1C | / | 6.6 | -0.1% | 5.4 | -34.0
Cc1onc(-c2ccccc2Cl)c1C(=O)Nc1ccc(-n2nncc2-c2ccco2)cc1 | 19.3 | / | 68.0% | -6.6 | -58.2
NS(=O)(=O)c1ccc(NC(=S)NCc2ccco2)cc1 | -6.2 | 0.0 | -7.2% | -3.0 | /
Cc1ccc(Cc2ccc(C(=O)NNC(N)=S)o2)cc1 | 0.4 | -0.7 | -0.1% | -9.4 | /

(next part)
SMILES | Mtb betalactam | RecA intein inh | Mtb growth | Arbovirus inh | YopH PTP inh | others
COc1ccc(NC(=S)N2CCCC2)cc1OC | 0.2 | -4.2 | 5.8% | -0.2 | /
COc1ccc(C(=O)N/C(=C\c2cn(C)c3ccccc23)C(=O)NCCCn2ccnc2)cc1 | -5.7 | 3.5 | / | / | /
CC(=O)c1ccc(NC(=O)CSc2nc(=O)n(CCN3CCOCC3)c3c2CCC3)cc1 | -12.0 | -3.9 | / | / | /
CCOC(=O)Cc1csc(NC(=O)c2c(O)c3ccccc3n(CCC(C)C)c2=O)n1 | 99.8 | -1.5 | <0.195µM* | 15.9 | /
Cc1ccc(/C=N/NC(=O)c2cccs2)s1 | 85.9 | -0.4 | 13.5% | -2.7 | -10.5
CCOC(=O)c1sc2nc(CSCC(=O)OCc3ccc(C(=O)OC)o3)[nH]c(=O)c2c1C | -5.5 | -0.3 | -9.8% | 2.5 | -13.6
CN(C1CCCCC1)S(=O)(=O)c1ccc(NC(=O)C2CCCCC2C(=O)O)cc1 (stereo not drawn) | 8.8 | -3.0 | -7.7% | 1.4 | -19.8
O=C(CNc1cccc(S(=O)(=O)N2CCCCC2)c1)Nc1ccccc1F | 1.2 | 0.0 | / | / | /
O=C(/C=C\Nc1cccc(F)c1)c1cccs1 | -0.4 | -10.1 | -7.6% | 3.6 | -41.6
COc1ccccc1NC(=O)c1sc(NC(=O)c2ccco2)c(C#N)c1C | -2.9 | 1.1 | 0.3% | -3.7 | -19.3
Cc1cc(NC(=O)Cn2nc(C(F)(F)F)c3c2CCC3)no1 | -4.3 | -1.6 | 0.7% | 5.7 | -20.2
O=C(CCCNC(=O)c1ccc(Cl)cc1)NCc1ccc(F)cc1 | -8.9 | 3.7 | / | / | /
CCS(=O)(=O)c1nc(S(=O)(=O)c2ccc(C)cc2)c(N2CCOCC2)s1 | 0.8 | -7.7 | / | / | /
O=C(N/N=C/c1ccc(O)cc1)c1csc2ccccc12 | 70.3 | 4.3 | 3.8% | -4.0 | 0.4
C=CCc1cccc(/C=N/NC(=O)c2ccccc2Br)c1O | 2.6 | 16.1 | 3.4% | -23.6 | /
O=C(NNC(=O)C1CCC1)c1ccccc1F | 5.4 | -0.7 | / | / | /
CCOC(=O)c1cnc(-n2nc(C)cc2C)nc1NC1CCCCC1 | 85.1 | 15.6 | ? | -33.2 | -6.1
C=CCNC(=O)Cc1c(OC)ccc2cc(Br)ccc12 | 0.3 | 0.9 | 4.5% | 4.7 | /

Bioassay records from PubChem BioAssay.
